WNV protease inh – WNV NS2B-NS3 proteinase inhibition; P06935; z-score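 (tested at a level between 10 and 100 µM)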; actives 0.18% (n = 65,000); WNV NS2B-NS3 protease, fluorogenic substrate Ex360/Em465; active compounds read low;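 active means z-score at -3 or under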;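 further: score is relative to mean and spread of the compound wells of a plate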
Target sequence (P06935 1371-1501 limits assumed): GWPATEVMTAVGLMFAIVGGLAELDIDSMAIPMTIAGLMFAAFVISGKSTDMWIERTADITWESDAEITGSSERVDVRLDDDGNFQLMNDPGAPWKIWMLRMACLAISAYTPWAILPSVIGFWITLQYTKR
Target sequence (P06935 1502-1679 limits assumed): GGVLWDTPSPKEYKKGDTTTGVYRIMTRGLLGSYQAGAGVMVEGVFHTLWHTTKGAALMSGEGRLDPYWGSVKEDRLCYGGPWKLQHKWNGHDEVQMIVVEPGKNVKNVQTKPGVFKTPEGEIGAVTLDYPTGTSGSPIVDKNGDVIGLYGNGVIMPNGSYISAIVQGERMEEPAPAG
MT1-MMP reporter – MT1-MMP gene expression reporter suppression – cell-based, luciferase reporter, luminescence (AID 618). MT1-MMP promoter luciferase reporter cells, luminescence. calls from a first round at 10 µM; hits with a dose series show EC50 in µM. actives 0.62% (n = 87,000);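 active means over half of the reporter light lost at 10 µM or EC50 under 50 µM; inactive means the rest and hits that failed the dose series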;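 further: actives suppress MT1-MMP promoter-driven transcription so potencies describe inhibitors; HT1080 fibrosarcoma cells; overnight exposure; toxic or luciferase-blocking compounds were not removed from the actives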
Hsc70 – Hsc70 inhibitors, probe displacement, primary screen, biochemical, fluorescence polarization (AID 568). one-dose displacement, % at 20 µM; IC50 in µM for titrated hits. 83,000 tested, under 10 active. Hsc70 fluorescence polarization, probe displacement; higher % means a stronger effect; strong numbers were not always called active;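 active means displacement above 50% without optical interference and an IC50 on retest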;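 further: ATPase domain with a fluorescein-tagged ATP probe; 0% = vehicle and 100% = excess ADP; read after one hour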
The depositor's hits bear a star; i = inactive; . = not tested or not shown. Not a hit list; any-hit rate near 0.87%.

SMILES	WNV protease inh	MT1-MMP reporter	Hsc70
Cc1cccc(NC(=O)C2CCCN(S(=O)(=O)c3cccc4nsnc34)C2)c1 (centres undefined)	.	i	-2.3%
COc1cc(C(=O)N2CCN(C(=O)C3CC3)CC2)cc(OC)c1OC	-0.3	i	-1.1%
Cn1c(=O)[nH]c(=O)c2c1nc(NCc1ccco1)n2CCCc1ccccc1	1.21	i	0.7%
CN1CCCN(C(=O)c2ccc(Cl)c(S(=O)(=O)N(C)c3ccccc3)c2)CC1	0.54	i	-3.8%
CC1(C)CC(=O)c2sc(NC(=O)CN3CCOCC3)nc2C1	1.23	i	4.1%
Cc1csc(NC(=O)c2cnc3ccccn3c2=O)n1	-0.16	i	7.9%
COc1ccc(CCN2CC(C(=O)O)CC2=O)cc1 (centres undefined)	-0.54	i	-4.4%
O=C(c1ccco1)N1CCN(c2nc3ccsc3c(=O)s2)CC1	-1.84	i	-0.8%
CCCc1cc(=O)n2[nH]c(-c3ccc(OC)cc3)nc2n1	.	i	2.5%
CN(C)CCCNC(=O)/C(=N\O)c1ccccc1	.	i	5.4%
CCCOC(=O)c1ccc(NC(=O)CCC(=O)OCC)cc1	-0.84	i	3.2%
Cc1cc(C)nc(NS(=O)(=O)c2ccc(NC(=S)NC(=O)C(C)(C)C)cc2)n1	.	i	0.2%
O=C1[C@@H]2[C@H](C(=O)N1n1cnnc1)[C@H]1C=C[C@@H]2C1	-0.08	i	-1.8%
C/C(=C1/SC(N2CCCC2)=NC1=O)c1ccc(Br)cc1	-1.02	i	3.9%
Cc1ccc(C(=O)Oc2ccccc2C(=O)N2CCOCC2)cc1	.	i	4.0%

Grouped by structure: those above containing four or more nitrogen atoms
SMILES	WNV protease inh	MT1-MMP reporter	Hsc70
Cc1cccc(NC(=O)C2CCCN(S(=O)(=O)c3cccc4nsnc34)C2)c1 (centres undefined)	.	i	-2.3%
Cn1c(=O)[nH]c(=O)c2c1nc(NCc1ccco1)n2CCCc1ccccc1	1.21	i	0.7%
Cc1csc(NC(=O)c2cnc3ccccn3c2=O)n1	-0.16	i	7.9%
CCCc1cc(=O)n2[nH]c(-c3ccc(OC)cc3)nc2n1	.	i	2.5%
Cc1cc(C)nc(NS(=O)(=O)c2ccc(NC(=S)NC(=O)C(C)(C)C)cc2)n1	.	i	0.2%
O=C1[C@@H]2[C@H](C(=O)N1n1cnnc1)[C@H]1C=C[C@@H]2C1	-0.08	i	-1.8%

Later entries
SMILES	WNV protease inh	MT1-MMP reporter	Hsc70
COc1ccc(-c2nc(C#N)c(NCCCN(C)C)o2)cc1OC	-0.3	i	3.4%
N#CCSc1n[nH]c2nc3c(c(=O)n12)C1(CCCC1)Cc1ccccc1-3	-0.6	i	-3.4%
CCOC(=O)C1=C(C)Nc2nnnn2C1c1c[nH]c2ccccc12 (centres undefined)	-0.59	i	-3.4%
O=C(c1ccccc1)N1CCN(C(=O)c2ccccc2)C1c1ccccc1	.	i	2.0%
COc1ccc(-c2noc(CSc3nc(-c4ccccc4)cc(=O)[nH]3)n2)cc1	.	i	-3.8%
Cc1nc2ccccc2n1/N=C/c1cccnc1	.	i	-7.1%
CC1(c2ccco2)NC(=O)NC1=O (centres undefined)	0.47	i	0.9%
CCN(CC)C(=O)CSc1nnc(-c2ccc(F)cc2)n1N	0.86	i	-2.7%
COc1ccc(N2C(=O)CN=C2Nc2cccc(C)c2C)cc1OC	-0.68	i	-5.1%
O=C(Nc1nc2ccccc2n1CCN1CCOCC1)c1cn(-c2ccccc2)nc1-c1ccccc1	3.7	i	1.0%
CC(=O)c1ccc(-c2nc3ccccc3n2C)o1	8.27	i	1.6%
Nc1nc(C2C(=O)CCCC2=O)cs1	-0.64	i	-2.0%
O=c1c2[nH]c3ccc(Cl)cc3c2ncn1Cc1ccccn1	0.81	i	1.7%
COCCn1c(-c2ccccc2)nc2oc3ccccc3c(=O)c2c1=O	0.12	i	-4.5%
c1ccc(-c2nn3c(-c4ccco4)nnc3s2)nc1	0.77	i	-6.7%
O=C(N/N=C/C=C/c1ccccc1)c1cccc(Br)c1	.	i	6.4%
CCN1C(=O)/C(=C\N2CCN(C)CC2)SC1=S	-2.21	i	2.3%
COC(=O)CN(C(=O)CSc1nnc(-c2cccc(OC)c2)o1)c1ccc(OC)cc1	-0.04	i	-6.7%
CC1NC(=O)NC1CCCCC(=O)O (centres undefined)	-0.78	i	2.0%
COC(=O)N/N=C(\C)c1ccccc1Br	.	i	-2.1%
CC1CCC(C(=O)NC(C(=O)N2CCN(c3ccccn3)CC2)C(C)C)CC1 (centres undefined)	-1.1	i	-0.2%
O=C(Cc1nn[nH]n1)NCc1ccccc1Cl	0.29	i	0.9%
O=C(NCc1ccncc1)c1ccc(Cl)c(S(=O)(=O)N2CCOCC2)c1	0.15	i	2.0%
CNC(=O)Cn1nc(-c2ccc(C)c(S(=O)(=O)N(C)C)c2)c2ccccc2c1=O	.	i	5.1%
CCOC(=O)c1nnn(-c2nonc2NC(C)=O)c1C	-0.1	i	1.8%
Cn1c(OCc2ccc3c(c2)OCO3)nc2c1c(=O)n(Cc1cccc(Cl)c1)c(=O)n2C	-0.31	i	-9.0%
CCN1C(=O)CC(N2CCC(C(=O)N3CCOCC3)CC2)C1=O (centres undefined)	-0.36	i	3.8%
COc1ccc2c(c1)[nH]c1c(=O)n(CCC3=CCCCC3)cnc12	.	i	0.6%
CS(=O)(=O)N(CC(=O)Nc1ccccc1C(=O)NCc1ccco1)c1ccc2c(c1)OCCO2	.	i	-0.3%
COc1ccc(N(CC(=O)Nc2ccc(C)c(C)c2)S(=O)(=O)c2c(C)n[nH]c2C)cc1	0.22	i	2.6%

Shown as labelled records: four of the compounds above.
> CNC(=O)Cn1nc(-c2ccc(C)c(S(=O)(=O)N(C)C)c2)c2ccccc2c1=O
  WNV protease inh: .
  MT1-MMP reporter: i
  Hsc70: 5.1%
> CCOC(=O)c1nnn(-c2nonc2NC(C)=O)c1C
  WNV protease inh: -0.1
  MT1-MMP reporter: i
  Hsc70: 1.8%
> Cn1c(OCc2ccc3c(c2)OCO3)nc2c1c(=O)n(Cc1cccc(Cl)c1)c(=O)n2C
  WNV protease inh: -0.31
  MT1-MMP reporter: i
  Hsc70: -9.0%
> CCN1C(=O)CC(N2CCC(C(=O)N3CCOCC3)CC2)C1=O (centres undefined)
  WNV protease inh: -0.36
  MT1-MMP reporter: i
  Hsc70: 3.8%

(further entries)
SMILES	WNV protease inh	MT1-MMP reporter	Hsc70
CCC(=O)C1=C(N2CCCC2)CC(C)(C)CC1=O	.	i	0.7%
Cc1ccc(-n2ncc3c(=O)[nH]cnc32)c(C)c1	-1.06	i	6.6%
COC(=O)c1cc2ccsc2n1CC(=O)Nc1ccc(N(C)C)cc1	1.54	i	-0.4%
COc1ccc(C(=O)CSc2nc3cccnc3n2C)cc1	.	i	2.3%
O=C(COC(=O)Cc1ccsc1)NC1CCCCCC1	0.79	i	5.1%
O=S(=O)(c1ccc(N2CCN(S(=O)(=O)c3ccc4c(c3)OCCO4)CC2)nc1)N1CCCC1	0.15	i	5.2%
CCCCC[C@H](O)/C=C/C1=C(CCCCCCC(=O)O)C(=O)CC1	-0.12	i	4.9%
C=CCn1c(SCc2ccc(Cl)cc2)nc2c1c(=O)[nH]c(=O)n2C	0.47	i	0.8%
O=C(c1ccco1)N1CCN(C(=O)c2cnn3c(C(F)(F)F)cc(-c4cccs4)nc23)CC1	-0.51	i	-4.2%
O=C(CCN1C(=O)c2ccccc2C1=O)NC1=NCCS1	-0.3	i	-3.1%
COc1ccccc1CNc1n[nH]c(NCc2ccccc2OC)n1	1.73	i	-7.1%
CCOC(=O)C1CCCN(C(=O)C2CCCN(S(C)(=O)=O)C2)C1 (centres undefined)	1.77	i	-1.7%
O=C(NCC1CCCO1)c1cccc(-n2cnnn2)c1 (centres undefined)	0.84	i	-3.4%
COc1ccc(Sc2nnc(-c3ccccc3)cc2C#N)cc1	.	i	3.1%
O=P(O)(CCCP(=O)(O)CCc1ccccc1)CCc1ccccc1	0.74	i	-7.9%
CCOc1ccc(C2/C(=C(\O)c3cccc(OC)c3)C(=O)C(=O)N2c2cc(C)on2)cc1OC (centres undefined)	-0.44	i	-4.1%
COC(=O)c1[nH]c2ccc(C)cc2c1NC(=O)CN1CCCC(C)(C)C1	-0.57	i	1.8%
Cc1cc2oc(=O)cc(CN3CCN(C/C=C/c4ccccc4)CC3)c2cc1O	1.59	i	2.8%
COc1ccccc1CNC(=O)c1ccc(CS(=O)(=O)c2ccccc2OC)o1	-0.05	i	-6.1%
CCOC(=O)C(C)n1cnc2c(oc3ccccc32)c1=O (centres undefined)	1.52	i	1.8%
Cc1c(NC(=O)CSc2nc3c(cnn3-c3ccccc3)c(=O)[nH]2)c(=O)n(-c2ccccc2)n1C	-0.74	i	0.0%
Cc1c(C(=O)O)oc2ccc(S(=O)(=O)NCc3ccc(F)cc3)cc12	-0.95	i	-2.8%
Cc1noc(C)c1COC(=O)COc1ccc2c(C)cc(=O)oc2c1	0.16	i	-3.3%
CCCOC(=O)CCc1n[nH]c(=O)[nH]c1=O	-0.94	i	-6.4%
COc1ccc(NC(=O)C2CCCN2S(=O)(=O)c2ccc(C)cc2)cc1 (centres undefined)	.	i	-3.8%
COC(=O)c1ccccc1NC(=O)c1nc2nc(C)cc(C(F)F)n2n1	0.04	i	2.0%
O=C(COC(=O)C1(c2ccccc2F)CCCC1)N1CCN(C(=O)c2ccco2)CC1	1.79	i	0.6%
CCOC(=O)N1CCC(N2C(=O)c3ccccc3C2Nc2ccc(Cl)cn2)CC1 (centres undefined)	0.7	i	0.0%
CCOC(=O)N1CCN(c2cc3[nH]c(=S)[nH]c3cc2F)CC1	0.26	i	3.0%
Cc1cccc(C)c1OCC(=O)N=Nc1c(O)[nH]c2ccc(Br)cc12	.	i	-2.2%
CN1CCN(C(=O)C23CCC(C)(c4nc5ccccc5nc42)C3(C)C)CC1 (centres undefined)	.	i	-0.2%
CC1CN(c2ncnc3c2cnn3-c2ccc(Cl)cc2)CC(C)O1 (centres undefined)	1.74	i	1.9%
Cc1ccc(Nc2nc(CSc3nnnn3-c3ccccc3)cs2)cc1	-0.21	i	-7.1%
O=C(O)C1C2C=CC(C2)C1C(=O)Nc1ccc2c(c1)OCCO2 (centres undefined)	-0.69	i	-6.2%
CCc1ccc2[nH]c(=O)c(CN(CCN(C)C)C(=O)Nc3ccccc3OC)cc2c1	-0.89	i	-2.0%
Cc1csc2ncc(C(=O)Nc3ccc(C(F)(F)F)cc3)c(=O)n12	0.24	i	4.2%
O=C(Oc1cc2oc(=O)c3c(c2cc1Cl)CCCC3)c1ccco1	0.34	i	-6.6%
CCOc1ccc(-n2c(=O)cc(N3CCN(c4ccccc4)CC3)[nH]c2=O)cc1	-1.05	i	-5.9%
Cc1[nH]c2ccc(-c3nnc(SCC(=O)c4ccccc4F)o3)cc2c1C	0.43	i	-19.5%
COc1ccc(C(=O)Nc2cc(C)cc(C)c2)cc1S(=O)(=O)N1CCOCC1	.	i	-2.2%
COc1ccc(C2C3=C(CC(C)(C)CC3=O)Oc3ncn(CC(C)C)c(=N)c32)cc1 (centres undefined)	-1.03	i	-3.1%
Cn1c(Cn2c(=O)sc3ccccc32)nnc1SCc1cccc(F)c1	2.37	i	5.7%
Cc1csc(=O)n1CCC(=O)O	-0.52	i	-5.2%
COc1ccc(Cn2nnnc2C(c2cc3cc(C)ccc3[nH]c2=O)N2CCOCC2)cc1 (centres undefined)	-0.19	i	-10.3%
CCc1nnc(NC(=O)c2ccc3c(c2)C(=O)N(CC)C3=O)s1	.	i	-2.8%
O=C(Nc1ccccn1)C(=O)N1CCCCC1	.	i	-1.1%
CCOC(=O)Cn1nc(C)c2ccccc2c1=O	-0.62	i	2.2%
CC(C)OC(=O)NCN1C(=O)C2C3C=CC(C3)C2C1=O (centres undefined)	.	i	3.5%
CN1CCC(N2CCN(c3cccc(C(F)(F)F)c3)CC2)CC1	.	i	-0.8%
O=C(NC1=NCCS1)Nc1ccccc1	-0.58	i	-3.9%
Cn1c(=O)[nH]c(=O)c2c1nc(N(CCO)Cc1ccccc1)n2Cc1ccccc1Cl	-0.97	i	-1.0%
COc1ccc(S(=O)(=O)N(C)CC(=O)Nc2c(F)cccc2F)cc1	-0.19	i	6.6%
CCN(C(=O)c1ccco1)c1nnc(-c2ccc(OC)cc2)s1	.	i	1.7%
CCN(C(=O)CN1CCN(C)CC1)c1cccc2ccccc12	0.26	i	1.1%
O=C(OCC(=O)N1CCc2ccccc21)C1=COCCO1	-0.39	i	1.4%
CCn1c(SCC(=O)NCCc2ccc(Cl)cc2)nnc1-c1cccs1	0.39	i	3.1%
CCOC(=O)c1sc2nc(CC(=O)OC)nc(NCCN3CCOCC3)c2c1C	-0.64	i	-6.1%
Cc1ccc(CCNC(=O)C2CCN(S(=O)(=O)c3c(C)nn(C)c3C)CC2)cc1	-0.3	i	-0.3%
Cn1cccc1C(=O)NC(=O)CSc1nnc(C2CC2)n1-c1ccccc1	0.61	i	0.1%
CCOC(=O)CC(N)c1ccc2c(c1)OCO2 (centres undefined)	-0.47	i	-3.1%

Following part
SMILES	WNV protease inh	MT1-MMP reporter	Hsc70
Cc1nnc(NC(=O)c2c(F)c(F)c(F)c(F)c2F)s1	-0.16	i	-4.2%
N#Cc1ccccc1N=C1CCCN1Cc1ccccc1	1.84	i	0.6%
COc1ccc(NC(=O)C(Cc2ccccc2)NC(=O)c2ccco2)cc1OC (centres undefined)	0.13	i	2.1%
Cn1c(=O)n(CC(=O)Nc2ccccc2)c2ccccc21	1.05	i	0.2%
CCOC(=O)C1CCCN(C(=O)c2sc3nc(-c4ccc(F)cc4)cn3c2C)C1 (centres undefined)	-0.85	i	-2.7%
CC(CN1CCOCC1)OC(=O)C(C)(c1ccccc1)c1ccccc1 (centres undefined)	.	i	1.3%
